FGF22 binding: FGF22 (human) thermal shift binding | recombinant FGF22 thermal shift, SYPRO orange fluorescence; percent of sucrose octasulfate shift, DMSO zero | Q9HCT0 | actives 1.5% (n = 340,000) | AID 651658 | calls only at 9.99 µM;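 active = melting point raised past a set limit in the mean and every replicate; three in four hits are not shown here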
Target sequence (Q9HCT0 whole entry, looked up): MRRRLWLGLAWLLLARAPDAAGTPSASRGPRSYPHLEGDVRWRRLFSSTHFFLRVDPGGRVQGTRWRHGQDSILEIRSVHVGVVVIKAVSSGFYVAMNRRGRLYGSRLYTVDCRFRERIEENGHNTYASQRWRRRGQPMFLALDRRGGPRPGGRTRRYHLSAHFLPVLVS
MLL AF4-AF9 inh: inhibitors of human MLL-AF4/AF9 interaction; AlphaScreen, biotin-AF4 peptide binding to FLAG-AF9; inhibition, % at 10 µM; actives 0.47% (n = 350,000); AID 651704;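 active = every replicate reaching a set inhibition limit, whatever the replicate mean, cut at about 25% in these data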;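 also: 0% = plate neutral control median and 100% = total signal loss; the record names both 10 and 1 µM as test concentration; the first replicate is given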
Target sequence (P42568 whole entry, looked up): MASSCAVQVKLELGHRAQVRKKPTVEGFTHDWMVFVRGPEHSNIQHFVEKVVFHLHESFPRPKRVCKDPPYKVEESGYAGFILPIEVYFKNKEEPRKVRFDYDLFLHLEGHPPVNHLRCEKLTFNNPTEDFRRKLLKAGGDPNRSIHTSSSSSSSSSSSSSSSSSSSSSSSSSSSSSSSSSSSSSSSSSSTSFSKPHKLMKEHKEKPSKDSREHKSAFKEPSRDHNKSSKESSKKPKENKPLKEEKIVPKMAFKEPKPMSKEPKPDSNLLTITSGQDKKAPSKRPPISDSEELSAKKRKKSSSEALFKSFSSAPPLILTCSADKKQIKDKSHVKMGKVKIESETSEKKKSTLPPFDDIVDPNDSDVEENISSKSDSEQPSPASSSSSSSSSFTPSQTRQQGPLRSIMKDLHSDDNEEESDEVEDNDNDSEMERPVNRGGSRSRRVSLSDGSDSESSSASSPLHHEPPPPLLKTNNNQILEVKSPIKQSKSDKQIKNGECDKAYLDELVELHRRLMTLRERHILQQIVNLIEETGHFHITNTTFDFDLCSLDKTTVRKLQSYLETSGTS
T cruzi inh: blocks replication of Trypanosoma cruzi | T. cruzi beta-gal in NIH3T3, luminescence, 90 h | inhibition, % (concentration not given with the values) | actives 1.4% (n = 300,000);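 active = mean inhibition across valid replicates above about 55%, limit read from the data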;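 also: signal also drops with host cell toxicity which is not excluded here; 0% = plate median of DMSO wells and 100% = zero luminescence signal; higher percent means less beta-gal luminescence so fewer parasites; stock transfer was 50 nL into about 50 µL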
UCH37 inh: inhibitors of human deubiquitinating enzyme UCH37. inhibition, % (concentration not given with the values). purified proteasome/UCH37, Ub-AMC cleavage fluorescence. AID 588478. Q9Y5K5. actives 0.33% (n = 330,000);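 active = mean of two replicates above 20%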;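 also: 0% = compound-free wells with enzyme and 100% = wells lacking proteasome; stock transfer was 100 nL into about 20 µL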
Target sequence (Q9Y5K5 whole entry, looked up): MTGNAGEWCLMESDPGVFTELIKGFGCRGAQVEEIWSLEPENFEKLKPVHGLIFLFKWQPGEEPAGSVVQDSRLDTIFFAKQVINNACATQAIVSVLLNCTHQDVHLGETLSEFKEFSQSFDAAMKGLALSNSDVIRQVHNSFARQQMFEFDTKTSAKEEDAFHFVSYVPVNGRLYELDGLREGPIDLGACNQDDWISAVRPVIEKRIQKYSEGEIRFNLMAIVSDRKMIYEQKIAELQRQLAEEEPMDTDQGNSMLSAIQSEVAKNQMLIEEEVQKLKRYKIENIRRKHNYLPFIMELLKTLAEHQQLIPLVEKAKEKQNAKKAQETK
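Test system – human UCH37 enzyme supplied as purified proteasome complex · Incubation – 30 min preincubation with enzyme, 25 min cleavage at room temperature · Detection – AMC fluorescence from Ub-AMC cleavage, excitation 355 nm, emission 460 nm · Benchmarks – no-proteasome wells (full inhibition) and compound-free wells (no inhibition)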
E coli growth: inhibitors of Escherichia coli growth; OD600, 23 h; active compounds read low; OD600 absorbance (test concentration not listed); actives 0.21% (n = 330,000);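 active = OD600 absorbance below the run mean of sample wells minus 3.6 SD, in any replicate, cut at about 0.56 in these data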;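 also: stock transfer was 300 nL into about 60 µL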
Ecoli rRNA inh: inhibits bacterial ribosomal RNA function over humanized ribosomes; E. coli WT GFP vs humanized-ribosome RFP mutants, fluorescence, 24 h; active compounds read low; DMSO median 0, no signal -100; GFP signal change (wild-type ribosome), % (no concentration beside the values); actives 1.6% (n = 350,000); AID 720706;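 active = significant combined selectivity score with lowered wild-type GFP, culture density cut under 30%, mutant RFP and density less affected; inactive = any of these conditions unmet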; also: one replicate is shown; some compounds called inactive have numbers as strong as hits
A1 inh: inhibitors of the anti-apoptotic protein A1, read as caspase activation; MEF A1-2A-BIM cells, Caspase-Glo 3/7 luminescence, 3 h; percent of clofoctol response, vehicle zero; caspase activation, % (test concentration not listed); actives 0.066% (n = 330,000); AID 2462;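 active = over half of replicate activation scores above 10%, or exactly half above 10 with the replicate mean above 10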;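 also: wells of about 30 µL received 50 nL stock; many hits fall short of the cut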
Beta apoptosis: blocks beta cell apoptosis; INS-1E cytokine-induced death, ATP luminescence, 48 h; percent of positive-control rescue, neutral wells zero; protection from apoptosis, % (no concentration beside the values); actives 0.8% (n = 300,000); AID 435005;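 active = all replicates at 75% or more, or half of them and the mean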;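 also: 0% = cytokine-treated negative control wells and 100% = positive control rescue; higher means more ATP so stronger rescue from cytokine killing; wells of about 40 µL received 100 nL stock; the first replicate is given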
Ecoli rRNA inh OD600: further read-out of Ecoli rRNA inh, marked with its call; OD600 change, %; measured here: OD600 growth;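 optical density of the mix in the first replicate; 0 = DMSO median and -100 = no signal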
Ecoli rRNA inh RFP: also measured in Ecoli rRNA inh; calls as there; RFP signal change, %; measured here: RFP humanized mutant strains;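 first replicate; 0 = DMSO median and -100 = no signal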
The depositor's hits bear a star; i = inactive; / = no result given; + = active, no number. Only part of the results is shown; the hit share may differ from the screen's.

SMILES	FGF22 binding	MLL AF4-AF9 inh	T cruzi inh	UCH37 inh	E coli growth	Ecoli rRNA inh	Ecoli rRNA inh OD600	Ecoli rRNA inh RFP	A1 inh	Beta apoptosis
Oc1ccc(-c2nc(-c3ccc(F)cc3)c(-c3ccncc3)[nH]2)cc1	i	2.3	/	-8.6	0.318*	/	/	/	/	/
CCOC(=O)C1CCN(C(=O)CC2C(=O)N(Cc3ccccc3)C(C)c3nc4ccccc4n32)CC1 (centres undefined)	/	/	4.8	1.5	0.667	/	/	/	1.5	-3.5
CNC(=O)c1c[nH]c2ccc(S(=O)(=O)Nc3ccccc3F)cc2c1=O	i	-2.6	-1.3	2.1	0.684	24.9	31.0	4.8	-0.6	0.0
CN(C)S(=O)(=O)c1cccc(NC(=O)COC(=O)c2ccc3c(c2)OCO3)c1	/	/	7.7	6.2	0.66	/	/	/	0.5	-1.4
O=C(NCc1ccco1)C(c1ccc(F)cc1)N(CC1CCCO1)C(=O)Cn1nnc2ccccc21 (centres undefined)	/	/	-1.1	0.7	0.694	/	/	/	-0.6	-5.4
CCOc1ccccc1NC(=O)CSc1n[nH]c(N)n1	i	-0.4	5.1	2.3	0.679	0.4	1.5	-1.6	0.4	-0.2
Cc1ccc2c(Cl)cc(Cl)c(OCC(=O)O)c2n1	i	-5.2	-0.2	-6.1	0.666	-1.8	0.0	-4.7	-0.4	-3.5
O=C(NCCCN1CCCC1)Nc1ccc(F)cc1	i	7.8	-8.8	-0.8	0.677	6.6	12.3	-3.5	-2.1	-2.0
COc1ccc(/C=N/Nc2nc(N3CCCCC3)nc(N3CCCCC3)n2)cc1[N+](=O)[O-]	i	4.7	30.3	/	/	20.9	15.5	-3.9	0.1	/
CCC1Oc2ccc(C)cc2N(CC(=O)N2CCCC2)C1=O (centres undefined)	i	2.4	-4.9	1.6	0.685	3.5	7.3	-0.5	0.5	-4.6
CCN(CC)CCN1C(=O)C(=O)/C(=C(/O)c2c(C)[nH]c(C(=O)OC)c2C)C1c1ccc(OC)cc1 (centres undefined)	/	/	-18.0	10.6	0.646	/	/	/	0.6	/
CCOC(=O)C1CCN(C(=O)c2ccc(OCC(=O)Nc3cccc(C(F)(F)F)c3)c(OC)c2)CC1	i	-25.3	6.1	1.8	0.67	-6.7	-34.5	6.9	0.4	-10.6
O=C(C1=C[C@@H](c2coc3ccccc3c2=O)C[C@@H](OCc2ccc(CO)cc2)O1)N1CCN(Cc2ccccc2)CC1	+	-22.0	16.4	-1.6	/	/	/	/	1.4	0.2
Cc1nn(C(C)C(=O)N2CCCC2)c(=O)c2nn(-c3ccccc3)c(C)c12 (centres undefined)	i	-2.0	55.8*	/	/	4.2	3.9	-1.5	-0.5	-1.6
COc1ccc(CN(CC2CCC(C(=O)O)CC2)C(=S)Nc2cc(C)cc(C)c2)cc1 (centres undefined)	/	-1.3	2.7	0.4	0.668	16.2	8.2	-1.9	-0.7	-0.8
Cc1ccccc1C(=O)NCC(=O)OC(C)C(=O)NCc1ccco1 (centres undefined)	i	-2.4	-7.6	1.9	0.672	5.9	10.4	-0.9	0.5	1.7
O=C(N/N=C1\C2CN3CCN(C2)CC1(c1ccccc1)C3)c1ccc(F)cc1	i	-1.1	3.1	/	/	8.5	6.7	-1.8	0.2	3.7
CC(=O)Nc1nc(C)c(Oc2ccc(C)cc2)c(=O)[nH]1	i	-0.2	-29.1	-0.1	0.635	11.9	-7.9	-4.5	-0.4	-1.6
CCOC(=O)c1cnn(-c2ccc(Cl)cc2)c1C1CCN(C(=O)OC(C)(C)C)CC1	/	/	10.5	2.6	0.721	/	/	/	2.0	/
O=c1c2ccccc2nc(SCc2ccccc2)n1Cc1ccco1	/	/	13.0	4.4	0.736	/	/	/	1.5	-0.8

Retrieved by compound from the entries so far, 3 records:
SMILES	FGF22 binding	MLL AF4-AF9 inh	T cruzi inh	UCH37 inh	E coli growth	Ecoli rRNA inh	Ecoli rRNA inh OD600	Ecoli rRNA inh RFP	A1 inh	Beta apoptosis
Cc1ccc2c(Cl)cc(Cl)c(OCC(=O)O)c2n1	i	-5.2	-0.2	-6.1	0.666	-1.8	0.0	-4.7	-0.4	-3.5
CCN(CC)CCN1C(=O)C(=O)/C(=C(/O)c2c(C)[nH]c(C(=O)OC)c2C)C1c1ccc(OC)cc1 (centres undefined)	/	/	-18.0	10.6	0.646	/	/	/	0.6	/
Cc1ccccc1C(=O)NCC(=O)OC(C)C(=O)NCc1ccco1 (centres undefined)	i	-2.4	-7.6	1.9	0.672	5.9	10.4	-0.9	0.5	1.7

The listing picks up with the four entries that preceded the break.
SMILES	FGF22 binding	MLL AF4-AF9 inh	T cruzi inh	UCH37 inh	E coli growth	Ecoli rRNA inh	Ecoli rRNA inh OD600	Ecoli rRNA inh RFP	A1 inh	Beta apoptosis
O=C(N/N=C1\C2CN3CCN(C2)CC1(c1ccccc1)C3)c1ccc(F)cc1	i	-1.1	3.1	/	/	8.5	6.7	-1.8	0.2	3.7
CC(=O)Nc1nc(C)c(Oc2ccc(C)cc2)c(=O)[nH]1	i	-0.2	-29.1	-0.1	0.635	11.9	-7.9	-4.5	-0.4	-1.6
CCOC(=O)c1cnn(-c2ccc(Cl)cc2)c1C1CCN(C(=O)OC(C)(C)C)CC1	/	/	10.5	2.6	0.721	/	/	/	2.0	/
O=c1c2ccccc2nc(SCc2ccccc2)n1Cc1ccco1	/	/	13.0	4.4	0.736	/	/	/	1.5	-0.8
Nc1c(-c2ccc(Cl)cc2)cnn1-c1cccc([N+](=O)[O-])c1	/	/	6.8	1.4	0.731	/	/	/	0.8	7.0
COc1cc(C(=S)N2CCOCC2)cc(OC)c1OC(=O)c1ccccc1[N+](=O)[O-]	i	7.1	0.9	6.2	0.703	-1.8	4.0	-0.5	-0.2	-1.0
Cc1cccc(C)c1NC(=S)NC1CCCCC1	i	-2.0	2.9	2.7	0.703	-14.4	-30.0	3.6	-0.5	-1.8
Cn1c(C(=O)O)cnc1Sc1ncc(C(F)(F)F)cc1Cl	i	-4.0	5.4	2.3	0.673	-14.4	-15.1	-3.1	1.1	0.3
COC(=O)[C@H](CCSC)NC(=O)Nc1ccc(C)c(C)c1	/	/	-14.3	1.3	0.748	/	/	/	0.7	0.5
CC(C)[C@H](NC(=O)[C@@H]1CSCN1C(=O)OC(C)(C)C)C(=O)NCC1CCC(C(=O)O)CC1 (some centres undefined)	/	-3.3	-5.1	1.1	0.734	/	/	/	0.7	-3.4
Nc1cc(N)nc(SCCN2CCCCC2)n1	/	/	-12.3	1.8	0.679	/	/	/	-0.6	0.6
CC(=O)Nc1ccc(Nc2nc(C)c([N+](=O)[O-])c(Nc3ccc(NC(C)=O)cc3)n2)cc1	/	/	19.0	-2.2	0.714	/	/	/	0.9	0.5
Cc1ccc(C)c(N=Cc2c(O)c3ccccc3oc2=O)c1	/	/	2.4	-207.0	0.644	/	/	/	0.1	/
CC(=O)c1cccc(S(=O)(=O)N(CCCO)Cc2cc3ccc(C)cc3[nH]c2=O)c1	/	/	1.6	7.2	0.724	/	/	/	-0.4	0.2
N#CN1CCC(NS(=O)(=O)c2ccc(C(F)(F)F)cc2)C1 (centres undefined)	i	1.7	/	0.6	0.655	6.0	7.3	7.2	-1.9	-7.6
CC(c1cccs1)N(Cc1ccco1)C(=S)Nc1ccc(F)c(Cl)c1 (centres undefined)	i	-6.3	3.5	0.4	0.721	7.3	1.0	0.9	1.1	25.2
Cc1cc(NC(=O)COC(=O)COc2cccc3c2OC(C)(C)C3)no1	/	/	-28.9	0.7	0.686	/	/	/	1.2	-8.1
O=C(CN1CCN(C(=O)c2ccccc2)CC1)Nc1cccc(S(=O)(=O)N2CCCC2)c1	i	-4.6	/	2.3	0.667	-2.1	-0.2	-1.4	/	/
Cc1onc(-c2c(F)cccc2Cl)c1C(=O)NCc1ccccc1	i	-2.4	-1.2	-0.4	0.651	-2.0	1.1	-2.9	0.2	-0.8
Cc1ccc(/C=N/NC(=O)c2ccccn2)o1	i	-7.4	-16.6	/	/	9.8	2.3	4.8	-0.6	-5.5
COC(=O)c1ccccc1NC(=O)C12CC3CC(C1)CC(n1cnc(Cl)n1)(C3)C2	/	/	17.0	0.7	0.718	/	/	/	-0.7	2.1
Cc1ccccc1N(C(=O)Cn1nnc2ccccc21)C(C(=O)NCc1ccco1)c1ccncc1 (centres undefined)	/	/	-12.4	-1.4	0.692	/	/	/	-0.2	1.9
Cc1c2cnn(-c3ccccc3)c(=O)c2c(C)n1CCCC(=O)N1CCN(C2CCCCC2)CC1	i	3.1	50.0	4.0	0.683	-9.9	-8.3	-7.3	0.3	-0.7
O=C(NCC1CCCO1)c1ccccc1-c1nc(-c2ccc(Cl)cc2)no1 (centres undefined)	/	/	2.1	4.5	0.693	/	/	/	-1.3	60.9
Clc1ccc(-c2nsc(N3CCOCC3)n2)c(Cl)c1	i	-2.8	-5.6	1.4	0.711	-1.4	-5.2	-0.4	-7.5	-2.2
CCC1(C(=O)c2ccccc2)C(c2ccc([N+](=O)[O-])cc2)C1(C(=O)OC)C(=O)OC (centres undefined)	/	/	11.1	2.1	0.707	/	/	/	1.7	-3.2
Cc1ccc(C(=O)O)cc1NC(=O)C1CCCN1S(=O)(=O)c1cccc2nsnc12 (centres undefined)	i	1.6	-5.4	5.8	0.693	6.7	-1.2	-3.1	0.9	-1.4
CSc1nc(Sc2ccc(Cl)cc2)c2ccccc2n1	/	/	25.5	-5.5	0.771	/	/	/	-0.4	-3.7
COc1ccc(C(O)P(=O)(OC(C)C)c2ccc(N(C)C)cc2)c(OC)c1 (centres undefined)	i	0.5	0.2	0.8	0.658	4.1	14.0	3.4	0.8	-3.5
CC(C)(C)OC(=O)C[C@H]1C/C=C\C[C@H](CC(=O)NCCO)C(=O)NC[C@@H](c2ccccc2)OC1=O	i	-4.6	/	4.4	/	0.7	-8.6	-4.0	-0.4	-13.1
Cc1ccc(C)c(S(=O)(=O)N/N=C/c2ccc(N3CCOCC3)cc2)c1	i	-0.7	-4.5	/	/	0.5	4.4	-0.4	0.4	-4.8
COc1ccc(C/C(N)=N/OC(=O)c2ccco2)cc1OC	/	-0.9	10.7	0.7	0.683	2.9	10.6	-2.5	0.4	-7.9
CCOC(=O)c1c(C)oc2c1c(C=NCCO)c(O)c1ccccc12	i	10.6	19.1	11.3	0.692	0.7	-27.1	9.6	/	/
COCc1ccc(CN2CCC(CO)(CC3CCCCO3)CC2)o1 (centres undefined)	i	-1.0	0.9	-1.2	0.705	9.1	10.1	3.1	-0.1	-0.7
O=C(O)c1ccccc1SC1CC(=O)N(C2CCCCC2)C1=O (centres undefined)	/	/	1.9	2.1	0.69	/	/	/	2.3	/
O=C(C1CCCN1C(=O)c1cccs1)N1CCN(Cc2ccc3c(c2)OCO3)CC1 (centres undefined)	/	/	-1.0	1.4	0.7	/	/	/	0.5	-0.6

Assay outcomes as filed in PubChem.
